High-throughput results (PubChem)
KCNQ2 inh = KCNQ2 potassium channel inhibitors, primary screen, cell-based, CHO-K1, FluxOR thallium flux, B-score (AID 2156). Potassium voltage-gated channel subfamily KQT member 2 (Rattus norvegicus), O88943. B-score at 10 µM. actives 1.1% (n = 310,000). 20 min; stronger effect = lower value; only compounds with negative scores are shown here; some inactives read as strong as hits;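 active = fluorescence ratio B-score at most minus 3 library SDs, with starting brightness B-score within 2 library SDs, cut at about -5.5 in these data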
Target sequence (O88943 whole entry, looked up): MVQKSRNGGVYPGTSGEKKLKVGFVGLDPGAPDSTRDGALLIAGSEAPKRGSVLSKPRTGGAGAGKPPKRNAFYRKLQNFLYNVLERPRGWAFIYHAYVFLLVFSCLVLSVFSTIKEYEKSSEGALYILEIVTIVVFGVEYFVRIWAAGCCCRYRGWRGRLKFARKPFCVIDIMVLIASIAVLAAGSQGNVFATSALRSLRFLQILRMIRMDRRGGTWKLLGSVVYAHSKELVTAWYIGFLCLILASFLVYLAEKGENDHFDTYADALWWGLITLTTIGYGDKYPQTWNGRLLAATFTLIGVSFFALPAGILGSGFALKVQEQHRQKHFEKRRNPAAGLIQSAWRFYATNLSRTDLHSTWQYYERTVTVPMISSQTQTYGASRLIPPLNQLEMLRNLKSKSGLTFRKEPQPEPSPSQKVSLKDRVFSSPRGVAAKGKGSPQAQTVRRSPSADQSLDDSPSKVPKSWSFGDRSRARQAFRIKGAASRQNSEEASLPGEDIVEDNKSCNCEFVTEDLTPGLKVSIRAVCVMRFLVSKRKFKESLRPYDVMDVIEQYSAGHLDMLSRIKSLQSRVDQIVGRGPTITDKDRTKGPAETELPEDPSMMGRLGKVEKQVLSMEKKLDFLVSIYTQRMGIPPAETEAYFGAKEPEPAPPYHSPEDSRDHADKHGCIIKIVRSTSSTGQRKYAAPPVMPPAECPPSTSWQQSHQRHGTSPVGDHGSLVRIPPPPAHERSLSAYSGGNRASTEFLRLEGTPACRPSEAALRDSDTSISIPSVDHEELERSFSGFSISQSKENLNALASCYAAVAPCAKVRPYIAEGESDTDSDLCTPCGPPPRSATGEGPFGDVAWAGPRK
KCNQ2 inh baseline = recorded beside KCNQ2 inh, whose call it bears; B-score; measured here: initial fluorescence intensity artifact check;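 brightness before thallium and not channel activity; 0 = typical well and far values either way flag optical interference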
* = called active by the depositor; i = inactive. A portion of the library; the hit share may differ from the screen's.

SMILES	KCNQ2 inh	KCNQ2 inh baseline
O=C(NN1C(=O)C2C3C=CC(C3)C2C1=O)c1ccco1 (configuration not stated)	i	-0.12
COc1ccc(N(CC(=O)N2c3ccccc3CC2C)S(=O)(=O)c2c(C)noc2C)cc1 (configuration not stated)	i	1.27
Cc1ccccc1OCCSc1nnc(C)n1-c1ccccc1	i	0.36
Cc1ccc(C)c(N2CCN(C(=O)CSc3ccsc3[N+](=O)[O-])CC2)c1	i	-0.83
O=C(Nc1ccccc1C(=O)N1CCN(Cc2ccccc2)CC1)c1ccccc1	i	1.77
Clc1nnc(N2CCCCC2)c2ccccc12	i	-0.15
CNC(=S)N/N=C/c1ccc(OCC(=O)Nc2c(C)cc(C)cc2C)c(OC)c1	i	-0.07
COc1ccc(Cn2c(-c3ccc(OC)cc3)n[nH]c2=S)cc1	i	0.24
CC(C)(C)c1nnc2sc(SC/C(O)=C(\C#N)c3nc4ccccc4[nH]3)nn2c1=O	i	0.58
COc1cc(-c2noc(-c3cccc(Cl)c3)n2)cc(OC)c1OC	i	-0.06
COC(=O)[C@H](C)[C@H]1C[C@]1(C)[C@H](NC(=O)OCc1ccccc1)c1ccccc1	i	-1.74
Cc1ccc(S(=O)(=O)NCC2CCC(C(=O)O)CC2)cc1 (configuration not stated)	i	-0.71
Cc1ccc(C#CC[N+]2(CC#Cc3ccc(C)cc3)CCCCC2)cc1	i	0.03
COC(=O)c1ccc(CNC(=O)COC(=O)C2CCC(C(C)(C)C)CC2)cc1 (configuration not stated)	i	-0.01
O=C(CCn1cnnn1)Nc1ccccc1F	i	-1.84
COc1ccc(N2CCN(S(=O)(=O)c3ccc(C(=O)NCc4ccco4)cc3)CC2)cc1	i	1.1
N=c1n(CCN2CCCCC2)c2ccccc2n1CC(=O)c1cccs1	i	1.07
COc1ccc(CNC(=O)C(c2ccc(C)o2)N(C(=O)c2snc(C(N)=O)c2N)c2ccccc2OC)cc1 (configuration not stated)	i	0.31
COc1ccc(C2OCC3(CO2)SC(=O)NC3=O)cc1OC (configuration not stated)	i	-0.26
COc1ccc(NC(=O)NCc2cccnc2)c(OC)c1	i	0.02
COc1ccc(CN2CCN(C(=O)CC(C)C)CC2)cc1OC	i	-0.89
O=C(NCc1ccccc1)c1ccc(NC2=NC3CS(=O)(=O)CC3S2)cc1 (configuration not stated)	i	-1.79
Cc1cc(Nc2nc3ccccc3nc2Cl)n(-c2ccc([N+](=O)[O-])cc2)n1	i	-0.72
CC(=O)Nc1ccc(N2C(=O)CC(Sc3nc(C)cc(C)n3)C2=O)cc1 (configuration not stated)	i	0.12
N#CC1=C(N)Oc2n[nH]c(-c3ccncc3)c2C1c1ccsc1 (configuration not stated)	i	-0.72
Cc1ccc(CSc2nnc(CCNC(=O)OC(C)(C)C)o2)cc1	i	0.08
Nc1ccc2c(c1Cl)C(=O)c1ccc(N)c(Cl)c1C2=O	i	0.89
COCCN(Cc1cc2cc(C)ccc2[nH]c1=O)S(=O)(=O)c1ccc(Cl)cc1	i	0.34
CCOC(=O)N1CCN(c2ncc(C(F)(F)F)cc2Cl)CC1	i	0.15
CCN(CC)CCCNS(=O)(=O)c1ccc(OC)cc1	i	-1.25
COc1cc2c(cc1OC)C(C(=O)NCc1ccco1)C1c3ccccc3CCN1C2=O (configuration not stated)	i	1.03
CNC(=S)N1N=C(c2ccccc2)CC1c1ccc(OC)c(OC)c1 (configuration not stated)	i	0.01
COc1cc(C2C(C#N)=C(N)Oc3cc(C)n(CCc4ccccc4)c(=O)c32)cc2c1OCO2 (configuration not stated)	i	-1.84
O=C(c1cc(=O)c2ccccc2o1)N1CCN(c2cccc(Cl)c2)CC1	i	1.22
CCOC(=O)c1ccc(NC(=O)Nn2cnnc2)cc1	i	1.07
Cn1c(=O)n(C)c2cc(/C=C3/SC(=O)N(CC(=O)N4CCOCC4)C3=O)ccc21	i	-0.75
O=c1c(Cl)c(N/N=C/c2ccc(Br)cc2)cnn1-c1ccccc1	i	-0.01
CCc1cc(C(=O)OCC(=O)N2CCC(c3ccccc3)=N2)sc1C	i	2.72
C=CCSc1nnc(NC(=O)c2ccc(Cl)nc2)s1	i	0.77
O=C(NCc1ccccc1)c1c[nH]c2ccc(F)cc2c1=O	i	-0.06
Cc1cc(/C=C(\C#N)c2nc3ccccc3[nH]2)c(C)n1C	i	1.42
CC1(C)CC(=O)C2=C(C1)N(Cc1ccco1)C(=O)C2(NC(=O)c1ccc(Cl)cc1Cl)C(F)(F)F (configuration not stated)	i	2.06
Cc1ccc(NC2=NCCCCC2)cc1	i	0.55
CCOc1ccc(CCNC(=O)c2sc3nc4n(c(=O)c3c2C)CCC4)cc1OCC	i	-0.06
CCCCOc1ccc(C2(C)NC(=O)NC2=O)cc1 (configuration not stated)	i	0.9
COc1ccccc1C(=O)n1nc(-c2ccco2)nc1SC	i	-0.96
CCS(=O)(=O)C(=C(Nc1ccc(OC)cc1)Nc1ccc(OC)cc1)S(=O)(=O)CC	i	1.16
COC(=O)c1ccc(C2c3c(oc4ccc(Cl)cc4c3=O)C(=O)N2CCN2CCOCC2)cc1 (configuration not stated)	i	1.91
O=C(Nc1cccc2ccccc12)c1cc2c(cc1Br)OCO2	i	-0.01
CCOC(=O)C1=C(O)/C(=C/c2cc(OC)c(OC)c(OC)c2)N=C1C	i	-1.57
COC(=O)c1cn(CCOc2ccccc2)c2ccccc12	i	-0.59
COc1ccc(S(=O)(=O)N2CCN(C(=O)c3c(-c4ccccc4)noc3C)CC2)cc1	i	3.01
CN(C)c1ccc(NC(=O)CSc2nc3c(c(=O)[nH]2)CCCC3)cc1	i	-0.72
CCOC(=O)c1c(/N=C/C2=C(O)CC(C)(C)CC2=O)sc(C)c1C	i	-0.04
COc1ccc2cc(CCNC(=O)C3CCCC3)c(=O)[nH]c2c1	i	-1.62
Cc1cccc(/C=N/NC(=O)c2cc(-c3cccnc3)nc3c2c(C)nn3-c2ccccc2)c1	i	0.76
COc1cccc(C(=O)N/N=C/c2ccc(Oc3ccc([N+](=O)[O-])cn3)c(OC)c2)c1	i	1.86
Cc1nn(-c2ccccc2)c(Cl)c1C(=O)Nc1nnc(C2CCCC2)s1	i	1.89
CC(C)(C)NC(=O)COC(=O)c1ccccc1Oc1ccccc1	i	-0.06
Cc1ccc(C(=O)NNC(=O)C2CCN(c3ncccn3)CC2)cc1	i	0.38
The results go on:
SMILES	KCNQ2 inh	KCNQ2 inh baseline
CC1CC(C)CN(C(=O)Cn2nnc(-c3ccccc3)n2)C1 (configuration not stated)	i	1.18
O=S(=O)(c1ccccc1)c1nc(-c2ccccc2Cl)oc1NCCN1CCOCC1	i	-1.4
COc1ccc(CN2C(=O)C(Cc3ccccc3)Nc3ncnc(N4CCc5ccccc5C4)c32)cc1 (configuration not stated)	i	2.38
NC(=O)C1=C[C@H](c2ccccc2)C[C@H](OCc2ccc(CO)cc2)O1	i	-1.29
CCc1ccc(NC(=O)CCCN2C(=S)NC(C)(C)CC2C)cc1 (configuration not stated)	i	-0.01
NS(=O)(=O)c1ccc(Cl)cc1[N+](=O)[O-]	i	-0.12
CCc1nn(CC(=O)NCCCN2CCOCC2)c(=O)c2cc3sccc3n12	i	0.94
COc1ccccc1NC(=O)c1cc2ccccc2o/c1=N\O	i	-0.07
CC1CCCCC1NC(=O)CSc1nnc(-c2ccncc2)n1CCCN(C)C (configuration not stated)	i	-0.06
OCCNC1=NCCN1	i	-0.31
COc1cccc(CN(C)C(=O)c2cccc(OCc3ccccc3)c2)c1	i	-0.9
Cc1ccc(CCNC(=O)CSCc2ccc(F)cc2)cc1	i	0.85
CCCCn1c(N)c(N(CC(C)C)C(=O)c2oc3ccc(Br)cc3c2C)c(=O)[nH]c1=O	i	0.41
CCNc1nc(NCc2ccccc2)nc(SCC(=O)Nc2ccccc2)n1	i	0.4
CC1CC(C)CN(CCCNC(=O)c2csc3c2CCCCC3)C1 (configuration not stated)	i	1.8

Reformatted field by field: part of the list above.
Cc1ccc(CCNC(=O)CSCc2ccc(F)cc2)cc1
  KCNQ2 inh = i	KCNQ2 inh baseline = 0.85

CCCCn1c(N)c(N(CC(C)C)C(=O)c2oc3ccc(Br)cc3c2C)c(=O)[nH]c1=O
  KCNQ2 inh = i	KCNQ2 inh baseline = 0.41

Next part.
SMILES	KCNQ2 inh	KCNQ2 inh baseline
CCc1cccc(CC)c1NC(=S)NC(C)c1ccccc1 (configuration not stated)	i	0.03
Cc1ccc(-n2nnnc2SC(C)C(=O)NCC(=O)Nc2ccc(F)c(F)c2F)c(C)c1 (configuration not stated)	i	-0.06
O=C(COC(=O)CNC(=O)c1ccc(Cl)cc1Cl)Nc1ccc(N2CCOCC2)cc1	i	1.96
CC1(C)C(=O)OC(C(=O)c2ccc(C(C)(C)C)cc2)C(C)(C)C1=O (configuration not stated)	i	-0.73
CCOc1ccc(C2=Nn3c(nnc3-c3ccccc3OC)SC2)cc1	i	-0.02
COc1ccc(CCNC(=O)c2cccc([N+](=O)[O-])c2)cc1OC	i	0.47
Cc1ccc(NC(=O)c2ccc(NCc3ccco3)c([N+](=O)[O-])c2)cc1Cl	i	1.52
CC(=O)Nc1cccc(OC(=O)c2ccoc2C)c1	i	0.2
Cc1ccc(-c2nnc(N3CCCCC3)c3ccccc23)cc1	i	-1.41
Cc1ccc(NC(=O)C2CC(O)CN2C(=O)OCc2ccccc2)c(C)c1 (configuration not stated)	i	1.8
O=C(COc1ccc(-c2nnco2)cc1)Nc1ccc(C(F)(F)F)cc1	i	1.74
COc1ccc(C(C)C)cc1S(=O)(=O)NCCCn1ccnc1	i	3.17
COc1ccc(Cc2noc(CN(C)CCc3ccccc3)n2)cc1OC	i	-1.07
CCCCn1c(CNC(=O)CCC)nc2ccccc21	i	-0.18
CCOC(=O)Nc1nc(-c2ccccc2)c(C(=O)c2ccc(Cl)cc2)s1	i	0.09
Cc1onc(-c2ccccc2)c1C(=O)NCc1cccs1	i	-1.8
O=C(NC1CCCC1)C(=O)N(Cc1cccnc1)C(C(=O)NCc1ccco1)c1ccccc1F (configuration not stated)	i	0.24
O=S1(=O)c2ccccc2Nc2ccccc21	i	1
COC(=O)c1cc2n3ccccc3c(C)c(-c3ccccc3)c-2c1C(=O)OC	i	1.65
CC1=C(C#N)C(c2cccnc2)C2=C(CC(C)(C)CC2=O)N1 (configuration not stated)	i	0.18
COc1cc2[nH]c(=S)nc(NCc3ccc(Cl)cc3)c2cc1OC	i	-0.68
CCS(=O)(=O)Nc1ccc(-c2ccc(NS(=O)(=O)CC)c(OC)c2)cc1OC	i	-0.36
C/C(=N\NC(=O)COc1ccc2ccccc2c1)c1cccs1	i	-0.48
Cc1ccc(CCNC(=O)c2cccc(N3CCCC3=O)c2)cc1	i	0.93
O=C(NNC(=O)c1ccc2ccccc2c1O)c1ccccc1Cl	i	-0.07
CCCn1c(NCc2ccc(N(C)C)cc2)nc2ccccc21	i	3.57
O=C(OC(c1ccccc1)c1nccc2ccccc12)c1cccc([N+](=O)[O-])c1 (configuration not stated)	i	-0.18
O=C(CCC1CCN(C(=O)c2ccco2)CC1)NCc1ccc(F)cc1	i	1.78
COc1cc(NC(=O)c2ccc3c(c2)OCO3)c2ncccc2c1	i	0.17
C=CCN=Cc1c(C)[nH]n(-c2ccccc2)c1=O	i	-0.42

A different layout for some results above:
KCNQ2 inh	KCNQ2 inh baseline	smiles
i	-1.07	COc1ccc(Cc2noc(CN(C)CCc3ccccc3)n2)cc1OC
i	-0.18	CCCCn1c(CNC(=O)CCC)nc2ccccc21
i	0.09	CCOC(=O)Nc1nc(-c2ccccc2)c(C(=O)c2ccc(Cl)cc2)s1
i	-1.8	Cc1onc(-c2ccccc2)c1C(=O)NCc1cccs1
i	0.24	O=C(NC1CCCC1)C(=O)N(Cc1cccnc1)C(C(=O)NCc1ccco1)c1ccccc1F (configuration not stated)
i	1	O=S1(=O)c2ccccc2Nc2ccccc21
i	1.65	COC(=O)c1cc2n3ccccc3c(C)c(-c3ccccc3)c-2c1C(=O)OC
i	0.18	CC1=C(C#N)C(c2cccnc2)C2=C(CC(C)(C)CC2=O)N1 (configuration not stated)
i	-0.68	COc1cc2[nH]c(=S)nc(NCc3ccc(Cl)cc3)c2cc1OC
i	-0.36	CCS(=O)(=O)Nc1ccc(-c2ccc(NS(=O)(=O)CC)c(OC)c2)cc1OC
i	-0.48	C/C(=N\NC(=O)COc1ccc2ccccc2c1)c1cccs1
i	0.93	Cc1ccc(CCNC(=O)c2cccc(N3CCCC3=O)c2)cc1
i	-0.07	O=C(NNC(=O)c1ccc2ccccc2c1O)c1ccccc1Cl
i	3.57	CCCn1c(NCc2ccc(N(C)C)cc2)nc2ccccc21
i	-0.18	O=C(OC(c1ccccc1)c1nccc2ccccc12)c1cccc([N+](=O)[O-])c1 (configuration not stated)

Additional entries:
SMILES	KCNQ2 inh	KCNQ2 inh baseline
CN(CC(=O)NCc1ccccc1)S(=O)(=O)c1cnc[nH]1	i	1.77
COc1ccc(-c2c[n+](CC(=O)N3c4ccccc4Sc4ccccc43)c3n2CCC3)cc1	i	-1.26
CCc1ccc(OCC(O)CN2CCN(c3ccccc3)CC2)cc1 (configuration not stated)	i	0.77
COc1ccc(N2CCN(C(=O)c3c(-c4ccccc4)noc3C)CC2)cc1	i	1.11
N#CNC(=Nc1ccc(F)cc1)SCc1ccccc1	i	0.14
COc1cccc(OC)c1-c1nn2c(-c3ccco3)nnc2s1	i	-1.42
O=C(CSc1nnc(C2CCCCC2)n1Cc1ccccc1)NCc1ccco1	i	-0.28
CC(C)(C)C(=O)Nc1ncc(C(F)(F)F)cc1Cl	i	0.16
COc1ccc(NC(=O)CNC(c2ccccc2)c2ccccc2)cc1	i	-0.08
COc1ccc(C(=O)OCC(=O)NC2CC2)cc1[N+](=O)[O-]	i	0.78
COc1ccc(-c2csc3ncnc(N4CCN(c5cccc(C)c5C)CC4)c23)cc1	i	-1.21
CC(Oc1ccc(F)cc1)C(=O)Nc1cc(Cl)ccc1-n1cncn1 (configuration not stated)	i	0.58
Cc1cc(F)ccc1S(=O)(=O)N1CCCOC1CNC(=O)C(=O)NCc1ccncc1 (configuration not stated)	i	0.88
